Screening results deposited in PubChem by Center for Chemical Genomics, University of Michigan.
HIV TAR-Tat: HIV-1 TAR-Tat binding disruption; z-score (no concentration beside the values); HIV-1 TAR RNA, Tat peptide displacement FRET; hits give high values; 100,000 compounds, 0.6% hits;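 further: score is relative to mean and SD of negative controls; some compounds called inactive have numbers as strong as hits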
CDC25B-CDK2 inh: human CDC25B-CDK2/CyclinA binding inhibition; P30305+P24941; HTRF CDC25B-CDK2/CyclinA binding, anti-His/anti-Flag; hits give high values; z-score (no concentration beside the values); 94,000 compounds, 0.72% hits; AID 1259370;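 further: score is relative to mean and SD of negative controls; strong numbers were not always called active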
Starred values were filed as active, the others as inactive.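 How the source made its calls: active means z-score from 3 up in half or more of its runs; inactive means the rest.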

How did CCOC(=O)c1c(C(=O)OCC)c2n(c1-c1ccccc1)Cc1ccccc1-2 do in these assays?
HIV TAR-Tat: -1.4; CDC25B-CDK2 inh: 0.31

What do the screens show for `COC(=O)c1sc2ccccc2c1S(=O)(=O)Nc1ccc2c(c1)OCO2`?
HIV TAR-Tat: 0.02

How did O=C(NC1CC1)c1cc2c(s1)-c1ccsc1CC2 do in these assays?
HIV TAR-Tat: -0.87

Results for COC(=O)/C=C1\Nc2ccccc2C(=O)NC1=O ?
CDC25B-CDK2 inh: -1.4

How did CCCc1ccc(S(=O)(=O)Nc2ccc3c(c2)N(S(=O)(=O)CC)CCC3)cc1 do in these assays?
HIV TAR-Tat: 0.94

How did O=C(c1ccccc1)N1N=C(c2ccc(F)cc2)CC1(O)C(F)(F)F (configuration not stated) do in these assays?
CDC25B-CDK2 inh: -1.5

How did CC1=C(C(=O)OCCOC(C)C)C(c2ccc(Cl)cc2)C2=C(CC(c3cccs3)CC2=O)N1 (configuration not stated) do in these assays?
HIV TAR-Tat: -1.2; CDC25B-CDK2 inh: -1.9

How did CCCNC(=O)C1CCC(CNS(=O)(=O)c2ccc3c(c2)CC(C)N3C(=O)C2CC2)CC1 (configuration not stated) do in these assays?
HIV TAR-Tat: 1.1

Results for O=C(CCC1CCCC1)Nc1ccc2[nH]c(=O)sc2c1 ?
HIV TAR-Tat: 1.1

What do the screens show for `CCOC(=O)C1CCCN(c2c(N3CCN(CC)CC3)c(=O)c2=O)C1` (configuration not stated)?
HIV TAR-Tat: 1.5; CDC25B-CDK2 inh: 0.86

How did CCOc1ccc2nc(-n3nc(C)c4c3NC(=O)CC4c3cnn(CC)c3)sc2c1 (configuration not stated) do in these assays?
HIV TAR-Tat: 1.4

What do the screens show for `Cc1ccc(OCCCSc2nc(-c3ccc(C)cc3)c(C#N)c(=O)[nH]2)cc1`?
HIV TAR-Tat: -1.2; CDC25B-CDK2 inh: 0.01

What do the screens show for `CC1CC(=O)Nc2cc(S(=O)(=O)NCCCc3ccco3)ccc2S1` (configuration not stated)?
HIV TAR-Tat: 0.03

How did CCOC(=O)C(NCCc1ccccc1)(NC(C)=O)C(F)(F)F (configuration not stated) do in these assays?
CDC25B-CDK2 inh: -2.4

Results for COc1ccc(/C=C(\C#N)c2cccc(Cl)c2)c(OC)c1 ?
CDC25B-CDK2 inh: -0.08

Results for CC1(C(=O)NC2CCCC2)CCC(=O)N1C1CCCCC1 (configuration not stated) ?
HIV TAR-Tat: 0; CDC25B-CDK2 inh: -0.36

How did CCOC(=O)c1csc(CS(=O)(=O)Cc2ccco2)n1 do in these assays?
CDC25B-CDK2 inh: 0.41

Results for CCCCCCn1c(SCCC(=O)O)nc2c1c(=O)[nH]c(=O)n2C ?
HIV TAR-Tat: 0.93; CDC25B-CDK2 inh: -1.7

Results for Cc1ccc(-c2cc3nc(-c4cccnc4)cc(C(F)(F)F)n3n2)cc1 ?
HIV TAR-Tat: 0.11; CDC25B-CDK2 inh: 2.8

What do the screens show for `NS(=O)(=O)c1cccc(NC(=O)c2sccc2Cl)c1`?
CDC25B-CDK2 inh: 0.79

What do the screens show for `CC(C)NC(=O)C1=Cc2sc3c(c2CS1)CCCC3`?
HIV TAR-Tat: -0.79

How did O=c1cc(CO)oc(C(Nc2ccccn2)c2ccccc2Cl)c1O (configuration not stated) do in these assays?
CDC25B-CDK2 inh: -0.66

What do the screens show for `COC(=O)COc1ccc2c3c(c(=O)oc2c1)CCC3`?
CDC25B-CDK2 inh: 0.16

What do the screens show for `CNS(=O)(=O)c1cn(CC(=O)N2CCN(c3ccc(Cl)cc3)CC2)cc1S(=O)(=O)NC`?
HIV TAR-Tat: -1.2

Already shown: an excerpt of the list.
How did CCOC(=O)c1c(C(=O)OCC)c2n(c1-c1ccccc1)Cc1ccccc1-2 do in these assays?
HIV TAR-Tat: -1.4; CDC25B-CDK2 inh: 0.31

What do the screens show for `COC(=O)c1sc2ccccc2c1S(=O)(=O)Nc1ccc2c(c1)OCO2`?
HIV TAR-Tat: 0.02

How did O=C(NC1CC1)c1cc2c(s1)-c1ccsc1CC2 do in these assays?
HIV TAR-Tat: -0.87

Results for COC(=O)/C=C1\Nc2ccccc2C(=O)NC1=O ?
CDC25B-CDK2 inh: -1.4

How did CCCc1ccc(S(=O)(=O)Nc2ccc3c(c2)N(S(=O)(=O)CC)CCC3)cc1 do in these assays?
HIV TAR-Tat: 0.94

How did O=C(c1ccccc1)N1N=C(c2ccc(F)cc2)CC1(O)C(F)(F)F (configuration not stated) do in these assays?
CDC25B-CDK2 inh: -1.5

How did CC1=C(C(=O)OCCOC(C)C)C(c2ccc(Cl)cc2)C2=C(CC(c3cccs3)CC2=O)N1 (configuration not stated) do in these assays?
HIV TAR-Tat: -1.2; CDC25B-CDK2 inh: -1.9

How did CCCNC(=O)C1CCC(CNS(=O)(=O)c2ccc3c(c2)CC(C)N3C(=O)C2CC2)CC1 (configuration not stated) do in these assays?
HIV TAR-Tat: 1.1

Results for O=C(CCC1CCCC1)Nc1ccc2[nH]c(=O)sc2c1 ?
HIV TAR-Tat: 1.1

What do the screens show for `CCOC(=O)C1CCCN(c2c(N3CCN(CC)CC3)c(=O)c2=O)C1` (configuration not stated)?
HIV TAR-Tat: 1.5; CDC25B-CDK2 inh: 0.86

How did CCOc1ccc2nc(-n3nc(C)c4c3NC(=O)CC4c3cnn(CC)c3)sc2c1 (configuration not stated) do in these assays?
HIV TAR-Tat: 1.4

The list continues.
How did CN(C)CCCN1C(=O)C(=O)/C(=C(\O)c2ccc(F)cc2)C12C(=O)N(C)c1ccccc12 (configuration not stated) do in these assays?
HIV TAR-Tat: 1.1; CDC25B-CDK2 inh: 0.27

What do the screens show for `COc1ccc(OCc2cc(=O)n3ccsc3n2)cc1`?
HIV TAR-Tat: 0.71; CDC25B-CDK2 inh: -1.1

Results for CCOC(=O)c1c2c3c(cccc3n(C)c1=O)C(=O)c1ccccc1-2 ?
HIV TAR-Tat: -0.88; CDC25B-CDK2 inh: -1.4

What do the screens show for `CSc1cccc(NC(=O)CN2N=NC3C(=O)N(c4ccc(Br)cc4)C(=O)C32)c1` (configuration not stated)?
HIV TAR-Tat: 0.55

What do the screens show for `Clc1cccc(-c2nc(NCCN3CCOCC3)nc3c2COc2ccccc2-3)c1`?
HIV TAR-Tat: 2.9; CDC25B-CDK2 inh: -2

How did CCOC(=O)c1c(NC(C)=O)sc2c1CCCC2=O do in these assays?
HIV TAR-Tat: 0.7; CDC25B-CDK2 inh: -1.8

How did COc1cccc(-c2nnc(SCCOc3ccc(C)cc3OC)o2)c1 do in these assays?
HIV TAR-Tat: 1.8; CDC25B-CDK2 inh: -0.93

Results for Cc1cc(C)cc(OCc2cc(=O)n3ccsc3n2)c1 ?
HIV TAR-Tat: 0.73; CDC25B-CDK2 inh: -0.63

Results for Cc1ccc(-c2cc3ncc4c(n3n2)-c2ccccc2OC4)cc1 ?
HIV TAR-Tat: 2.7; CDC25B-CDK2 inh: -0.45

How did CC1CCN(CCCNS(=O)(=O)c2ccc3c(c2)NC(=O)CC(C)S3)CC1 (configuration not stated) do in these assays?
HIV TAR-Tat: -0.02

Results for O=c1c(N2CCOCC2)nnc2sc3ccccc3n12 ?
CDC25B-CDK2 inh: -2.3

What do the screens show for `CC(C)CC(C(=O)N1CCN(c2ccccc2)CC1)N1Cc2ccccc2C1=O` (configuration not stated)?
HIV TAR-Tat: -0.11

What do the screens show for `COc1ccc(C2NC(=O)c3n[nH]c(-c4ccco4)c32)cc1OC` (configuration not stated)?
HIV TAR-Tat: 1.4; CDC25B-CDK2 inh: 1.2

How did Cc1nc(-c2ccc(S(=O)(=O)NCc3ccccn3)cc2)co1 do in these assays?
HIV TAR-Tat: 1.2

Results for CCOC(=O)c1cc(S(=O)(=O)N2CCc3ccccc3C2)cn1C ?
HIV TAR-Tat: 0.72; CDC25B-CDK2 inh: -2.4

Results for Cn1c(=O)oc2cc(S(=O)(=O)CCC(=O)N3CCOCC3)ccc21 ?
HIV TAR-Tat: 0.63

What do the screens show for `O=C1c2cccc3c(N4CCOCC4)ccc(c23)C(=O)N1c1ccc(Cl)cc1`?
HIV TAR-Tat: -0.74; CDC25B-CDK2 inh: -0.68

How did O=C(NCCN1CCOCC1)C1CCN(c2nc3cccnc3s2)CC1 do in these assays?
HIV TAR-Tat: -0.1

How did CCOc1ccc2nc(C)cc(Nc3ccc(N(C)C)cc3)c2c1 do in these assays?
HIV TAR-Tat: 2.9; CDC25B-CDK2 inh: -2.5

Results for CC(C)c1ccc(NNC(N)=S)cc1 ?
CDC25B-CDK2 inh: 0.21

How did COc1ccc(NC(=O)N(C2CCCCC2)C(C)c2cccs2)c(OC)c1 (configuration not stated) do in these assays?
HIV TAR-Tat: -3.5

What do the screens show for `c1ccc(NCc2ccc3c(c2)OCO3)cc1`?
HIV TAR-Tat: 0.49; CDC25B-CDK2 inh: -2.6

How did O=C(O)c1cc(=O)n2ccsc2n1 do in these assays?
HIV TAR-Tat: 0.49; CDC25B-CDK2 inh: -1.3

Results for O=C(O)c1cc(NC(=O)c2ccc(NC(=O)c3ccco3)cc2)cc(C(=O)O)c1 ?
CDC25B-CDK2 inh: -0.73

How did CCc1ccc(C2c3c(oc4ccccc4c3=O)C(=O)N2c2ccccn2)cc1 (configuration not stated) do in these assays?
HIV TAR-Tat: 1.6; CDC25B-CDK2 inh: -6.1

Results for CCN(CC)CCNC(=O)C(C)N1C(=O)CCn2nc(C)cc21 (configuration not stated) ?
HIV TAR-Tat: -0.11

Results for O=C(CSC1=NCCS1)Nc1nccs1 ?
HIV TAR-Tat: 1; CDC25B-CDK2 inh: -0.44

Results for Cc1ccc2oc(=O)c3cnn(CC(=O)N(Cc4ccco4)C4CCCC(C)C4C)c3c2c1 (configuration not stated) ?
HIV TAR-Tat: 0.41; CDC25B-CDK2 inh: -0.19

How did CCN(CC)CCNC(=O)c1cc(S(C)(=O)=O)ccc1OC do in these assays?
HIV TAR-Tat: 0.47; CDC25B-CDK2 inh: -0.49

How did CCN1C(=O)C(O)(c2c(C)[nH]c3ccccc23)c2cc(Br)ccc21 (configuration not stated) do in these assays?
CDC25B-CDK2 inh: -0.56

How did NNC(=O)c1cc(C(F)(F)F)cc(C(F)(F)F)c1 do in these assays?
CDC25B-CDK2 inh: -1.7

How did Cc1c(S(=O)(=O)C(C)C)c(N)n(Cc2ccc(F)c(Cl)c2)c1C do in these assays?
CDC25B-CDK2 inh: -0.85

How did Cn1cc(C(=O)NCCCN2CCOCC2)c2c3ccccc3n(C)c2c1=O do in these assays?
CDC25B-CDK2 inh: -1.5

What do the screens show for `O=C(CSc1ccsc1[N+](=O)[O-])N1CCN(c2ncccn2)CC1`?
HIV TAR-Tat: 0.95; CDC25B-CDK2 inh: -2

How did CC(NS(=O)(=O)c1ccc(Oc2cccc(Cl)c2C#N)cc1)C(C)(C)C (configuration not stated) do in these assays?
CDC25B-CDK2 inh: -0.65

Results for Cc1c(C(=O)O)sc2ncnc(NCCC(C)C)c12 ?
HIV TAR-Tat: 10*

Results for COC(=O)c1cc2sccc2n1CC(=O)N(C)C1CCCCC1 ?
HIV TAR-Tat: 3.8; CDC25B-CDK2 inh: -1.9

Results for O=C(c1ccco1)N1CCN(c2nc3cc(Br)ccc3n3cccc23)CC1 ?
HIV TAR-Tat: 0.23; CDC25B-CDK2 inh: -0.92

Results for Cc1ccc(S(=O)(=O)N[C@@H](Cc2ccccc2)C(=O)CCl)cc1 ?
CDC25B-CDK2 inh: -0.62

Results for Cc1ccc(S(=O)(=O)N(CC(O)Cn2nnc3ccccc32)c2ccccc2)cc1 (configuration not stated) ?
HIV TAR-Tat: -0.9; CDC25B-CDK2 inh: -1.7

How did COc1cc(CN2CCN(C3CCCC(C)C3)CC2)cc(OC)c1OC (configuration not stated) do in these assays?
CDC25B-CDK2 inh: -0.3

Results for Fc1ccc(COc2ccc(-c3nnco3)cc2)cc1 ?
CDC25B-CDK2 inh: -1.6

What do the screens show for `CC1c2ccsc2CCN1S(C)(=O)=O` (configuration not stated)?
CDC25B-CDK2 inh: -0.17

What do the screens show for `CC1(C)CN=C(N2CCN(c3c4c(c(C#N)c5nc6ccccc6n35)CCC4)CC2)S1`?
CDC25B-CDK2 inh: -2.3

Results for C=CCOC(=O)C1=C(C)Nc2[nH]c(=O)[nH]c(=O)c2C1c1cccc(C)c1 (configuration not stated) ?
CDC25B-CDK2 inh: -1

What do the screens show for `N/C(CSc1ncccc1C(F)(F)F)=N\OC(=O)Nc1cccc(Cl)c1`?
CDC25B-CDK2 inh: -1.3

Results for O=[N+]([O-])c1ccc2cc(Br)c3ccccc3c2c1 ?
CDC25B-CDK2 inh: -0.93

Results for CCC(=O)Nc1cccc2c(NC(=O)CC)cccc12 ?
CDC25B-CDK2 inh: 1.1

How did Cc1ccccc1NC1=NC2(CCCC2)N=C(N)N1 do in these assays?
CDC25B-CDK2 inh: -0.57

What do the screens show for `O=C(Cn1nnc2sc3c(c2c1=O)CCCC3)Nc1ccccc1F`?
HIV TAR-Tat: 3; CDC25B-CDK2 inh: -0.51

Results for CCN(CCCNS(=O)(=O)c1ccc2c(c1)NC(=O)CC(C)S2)c1ccccc1 (configuration not stated) ?
HIV TAR-Tat: 0.76

What do the screens show for `CCN1CCCC1CNC(=O)Cc1noc2ccccc12` (configuration not stated)?
HIV TAR-Tat: 1.1; CDC25B-CDK2 inh: 0.54

Results for O=C(Nc1cnc2sc3cc(F)ccc3n2c1=O)c1ccccc1Cl ?
HIV TAR-Tat: -0.73; CDC25B-CDK2 inh: 1

Results for Cc1nc2sc(C(c3ccc(F)cc3)N3CCN(c4ccccc4)CC3)c(O)n2n1 (configuration not stated) ?
CDC25B-CDK2 inh: 0.04

What do the screens show for `c1ccc2c(c1)c(N1CCOCC1)nn1nnnc21`?
HIV TAR-Tat: 1.6; CDC25B-CDK2 inh: 0.8

How did c1ccc(-n2ncc3c2CCc2c-3[nH]c3ccccc23)cc1 do in these assays?
CDC25B-CDK2 inh: -0.49

What do the screens show for `CSc1cccc(NC(=O)Cn2nc(SC)c(S(=O)(=O)c3ccc(Cl)cc3)c2N)c1`?
HIV TAR-Tat: -0.74

What do the screens show for `O=C(NC1CC1)c1cnn(-c2ccc(F)cc2)c1-n1cccc1`?
HIV TAR-Tat: 1.1
